Source: PubChem
Env fusion inh – inhibitors of HIV Env-mediated cell fusion. HeLa-JRFL Env/CEM21 cell fusion, luciferase. inhibition, % at 12.3 µM. 1.1% of 360,000 active;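 active = mean replicate inhibition score of at least 50 and every replicate individually at or above 50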;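 note: 0% = plate neutral controls and 100% = maraviroc near 300 nM; one replicate is shown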
UUG fidelity – modulators of start codon recognition fidelity in yeast. S. cerevisiae UUG-firefly luciferase reporter, luminescence/redox ratio. activity score, % at 18.7 µM. 0.13% of 350,000 active;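 active = replicate mean at a twofold rise or more, about +100% in these data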;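 note: firefly luciferase made from a UUG start codon reports start codon fidelity; reporter light over untreated wells divided by growth signal over untreated wells; some hits fall short of that in this replicate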
Starred values were filed as active, the others as inactive; [ ] = another dose, or the depositor's remark. Only part of the results is shown (hit frequency here may not be typical).

The first 6 entries as a preview:
SMILES | Env fusion inh | UUG fidelity
O=C(C[C@@H]1CC[C@@H](NC(=O)CN2CCOCC2)[C@H](CO)O1)NCCc1ccccc1 | 7.7[16.7 µM] | -9.0
C[C@@H]1CCCCO[C@@H](CN(C)Cc2ccc(C(F)(F)F)cc2)[C@H](C)CN([C@H](C)CO)C(=O)c2cc(N(C)C)ccc2O1 | 29.6[16.7 µM] | 10.0
CCCN(C)C[C@@H]1Oc2cc(C3=CCCCC3)ccc2S(=O)(=O)N([C@H](C)CO)C[C@@H]1C | 7.4[16.7 µM] | 5.2
CC(C)c1cn(CC[C@@H]2CC[C@@H](NS(=O)(=O)c3ccc(F)cc3)[C@H](CO)O2)nn1 | 1.0[16.7 µM] | -12.3
CNC[C@@H]1OCCCC[C@H](C)Oc2ccc(NS(=O)(=O)c3ccc(C)cc3)cc2C(=O)N([C@H](C)CO)C[C@@H]1C | -9.2[16.7 µM] | 25.3
C[C@H](CO)N1C[C@H](C)[C@H](CN(C)S(C)(=O)=O)Oc2ncccc2C1=O | -6.3[16.7 µM] | -2.1

The listing, from the first entry:
SMILES | Env fusion inh | UUG fidelity
O=C(C[C@@H]1CC[C@@H](NC(=O)CN2CCOCC2)[C@H](CO)O1)NCCc1ccccc1 | 7.7[16.7 µM] | -9.0
C[C@@H]1CCCCO[C@@H](CN(C)Cc2ccc(C(F)(F)F)cc2)[C@H](C)CN([C@H](C)CO)C(=O)c2cc(N(C)C)ccc2O1 | 29.6[16.7 µM] | 10.0
CCCN(C)C[C@@H]1Oc2cc(C3=CCCCC3)ccc2S(=O)(=O)N([C@H](C)CO)C[C@@H]1C | 7.4[16.7 µM] | 5.2
CC(C)c1cn(CC[C@@H]2CC[C@@H](NS(=O)(=O)c3ccc(F)cc3)[C@H](CO)O2)nn1 | 1.0[16.7 µM] | -12.3
CNC[C@@H]1OCCCC[C@H](C)Oc2ccc(NS(=O)(=O)c3ccc(C)cc3)cc2C(=O)N([C@H](C)CO)C[C@@H]1C | -9.2[16.7 µM] | 25.3
C[C@H](CO)N1C[C@H](C)[C@H](CN(C)S(C)(=O)=O)Oc2ncccc2C1=O | -6.3[16.7 µM] | -2.1
C[C@@H]1CN([C@H](C)CO)C(=O)c2cc(C#CCN(C)C)cnc2O[C@H]1CN(C)Cc1ccccn1 | 1.4[16.7 µM] | -24.5
CC(C)NC(=O)N(C)C[C@@H]1Oc2ccc(NC(=O)CCCCCC(=O)Nc3ccccc3N)cc2C(=O)N([C@@H](C)CO)C[C@H]1C | 5.8[16.7 µM] | -5.7
C[C@H](O)C#Cc1cnc2c(c1)C(=O)N([C@H](C)CO)C[C@H](C)[C@H](CN(C)Cc1cncnc1)O2 | 1.8[16.7 µM] | 12.8
C[C@@H]1CN([C@H](C)CO)S(=O)(=O)c2ccc(C#Cc3cccnc3)cc2O[C@H]1CN(C)CC1CCOCC1 | 16.2[16.7 µM] | -21.4
C[C@H]1CN([C@@H](C)CO)C(=O)Cc2cc(NC(=O)Cc3cn(C)c4ccccc34)ccc2O[C@@H]1CN(C)Cc1ccc(Cl)c(Cl)c1 | 28.2[16.7 µM] | -0.5
O=C(Nc1ccc(F)cc1)N[C@H]1CC[C@H](CCNS(=O)(=O)c2ccccc2F)O[C@@H]1CO | -8.4[16.7 µM] | -4.2
COc1ccc(C#Cc2ccc3c(c2)[C@]2(C(=O)N3)[C@H](c3ccc(OCCO)cc3)N3[C@H](c4ccccc4)[C@H](c4ccccc4)OC(=O)[C@H]3[C@@H]2C(=O)N2CCCCCCC2)cc1 | 14.6[16.7 µM] | -13.7
Cc1ccccc1-c1cnc2c(c1)C(=O)N([C@H](C)CO)C[C@H](C)[C@@H](CN(C)Cc1ccccc1F)O2 | 7.7[16.7 µM] | 11.1
C[C@@H]1CCCCO[C@H](CN(C)C(=O)Nc2cccc3ccccc23)[C@@H](C)CN([C@@H](C)CO)C(=O)c2cc(NS(C)(=O)=O)ccc2O1 | -11.2[16.7 µM] | -14.3
CS(=O)(=O)Nc1ccc2c(c1)[C@@H]1C[C@H](CC(=O)N3CCc4ccccc4C3)O[C@@H](CO)[C@@H]1O2 | -6.8[16.7 µM] | 4.2
C[C@H](CO)N1C[C@H](C)[C@H](CN(C)C(=O)Nc2ccc(F)cc2)Oc2ncc(C3=CCCCC3)cc2C1=O | -5.9[16.7 µM] | 33.4
C[C@H]1CN([C@@H](C)CO)C(=O)c2cccc(NC(=O)c3nc4ccccc4s3)c2O[C@@H]1CN(C)Cc1ccc(-c2ccccc2)cc1 | 6.8[16.7 µM] | 4.9
O=C(C[C@@H]1CC[C@@H](NC(=O)CCN2CCCCC2)[C@@H](CO)O1)Nc1ccc(-c2ccccc2)cc1 | 2.4[16.7 µM] | -2.2
CCCNC(=O)C[C@H]1CC[C@@H]2[C@H](COc3ccc(NS(=O)(=O)CC)cc3C(=O)N2C)O1 | -11.5[16.7 µM] | -18.9
COc1ccc(NC(=O)N(C)C[C@H]2OCc3cn(nn3)CCCC(=O)N([C@H](C)CO)C[C@@H]2C)cc1 | -3.4 | 8.7
C[C@@H]1CN([C@H](C)CO)C(=O)c2cc(Br)cnc2O[C@@H]1CN(C)C(=O)C1CC1 | -22.5[16.7 µM] | -8.5
C[C@H](CO)N1C[C@H](C)[C@H](CN(C)CC2CC2)Oc2cc(C#Cc3ccccc3F)ccc2S1(=O)=O | -12.7[16.7 µM] | 0.5
O=C(NCC[C@@H]1CC[C@H](NC(=O)C2CCCC2)[C@@H](CO)O1)c1cc(Cl)cc(Cl)c1 | -0.5[16.7 µM] | 3.0
COc1ccc(S(=O)(=O)Nc2ccc3c(c2)CC(=O)N([C@@H](C)CO)C[C@H](C)[C@H](CN(C)Cc2ccc(-c4ccccc4)cc2)O3)cc1 | -22.4[16.7 µM] | 2.4
C[C@@H](O)C#Cc1cnc2c(c1)C(=O)N([C@@H](C)CO)C[C@H](C)[C@@H](CN(C)C(=O)Cc1ccccn1)O2 | -1.9[16.7 µM] | -9.6
C[C@H](CO)N1C[C@H](C)[C@@H](CN(C)Cc2ccccn2)Oc2ncc(-c3ccc(F)cc3)cc2C1=O | -4.7[16.7 µM] | -11.1
COCC(=O)N(C)C[C@@H]1Oc2ncc(C#C[C@@H](C)O)cc2C(=O)N([C@@H](C)CO)C[C@@H]1C | 17.9[16.7 µM] | -8.2
COc1ccc(S(=O)(=O)N(C)C[C@H]2OCCCC[C@H](C)Oc3ccc(NC(=O)c4ccncc4)cc3C(=O)N([C@H](C)CO)C[C@@H]2C)cc1 | -2.5[16.7 µM] | 7.7
Cc1noc(C)c1NC(=O)Nc1ccc2c(c1)C(=O)N([C@H](C)CO)C[C@H](C)[C@H](CN(C)C(=O)Nc1c(C)noc1C)OCCCC[C@H](C)O2 | -2.1[16.7 µM] | 13.6
C[C@@H]1CCCCO[C@H](CN(C)S(=O)(=O)c2ccccc2)[C@H](C)CN([C@@H](C)CO)C(=O)c2cc(NS(=O)(=O)c3ccc(F)cc3)ccc2O1 | -75.8[16.7 µM] | 4.2
C[C@H]1CN([C@@H](C)CO)C(=O)Cc2cc(NC(=O)CCCCCC(=O)Nc3ccccc3N)ccc2O[C@H]1CN(C)S(=O)(=O)c1cccs1 | 12.8[16.7 µM] | 5.1
COC(=O)C[C@@H]1CC[C@@H]2[C@H](COc3ccc(NC(=O)c4cccc(F)c4)cc3C(=O)N2C)O1 | 6.1[16.7 µM] | 9.4
CC(C)C#Cc1cnc2c(c1)C(=O)N([C@@H](C)CO)C[C@H](C)[C@H](CN(C)S(=O)(=O)c1cn(C)cn1)O2 | 7.2[16.7 µM] | -0.3
C/C=C/c1cnc2c(c1)C(=O)N([C@H](C)CO)C[C@@H](C)[C@@H](CN(C)S(=O)(=O)c1ccc(C)cc1)O2 | 17.0[16.7 µM] | 6.4
C[C@H](CO)N1C[C@H](C)[C@H](CN(C)Cc2ccncc2)Oc2c(NC(=O)C3CCOCC3)cccc2C1=O | 9.2[16.7 µM] | -9.8
C[C@@H]1CN([C@@H](C)CO)S(=O)(=O)c2ccc(C#Cc3ccc(F)cc3)cc2O[C@H]1CN(C)S(=O)(=O)c1ccc(F)cc1 | 27.3[16.7 µM] | -21.3
C[C@H](CO)N1C[C@H](C)[C@H](CN(C)C(=O)Nc2cccc3ccccc23)Oc2c(NC(=O)Nc3ccc4c(c3)OCO4)cccc2C1=O | -62.3[16.7 µM] | 11.0
CCCN(C)C[C@@H]1Oc2ncc(-c3cccc(C#N)c3)cc2C(=O)N([C@@H](C)CO)C[C@@H]1C | -3.9[16.7 µM] | 6.2
O=C(Nc1ccc(C(F)(F)F)cc1)N[C@@H]1CC[C@H](CC(=O)N2CCCCC2)O[C@@H]1CO | -7.2[16.7 µM] | 14.5
O=C(C[C@H]1C=C[C@@H](NS(=O)(=O)c2ccc(F)cc2)[C@@H](CO)O1)NC1CCC1 | 11.3[16.7 µM] | 5.0
C[C@@H]1CN([C@H](C)CO)C(=O)c2cc(NC(=O)Nc3ccc(F)cc3)ccc2O[C@@H](C)CCCCO[C@@H]1CN(C)S(=O)(=O)c1ccccc1 | 14.6[16.7 µM] | -1.2
Cc1ccc(S(=O)(=O)Nc2ccc3c(c2)C(=O)N([C@H](C)CO)C[C@@H](C)[C@H](CN(C)C(=O)CCCN(C)C)OCCCC[C@@H](C)O3)cc1 | -2.0[16.7 µM] | 17.7
COc1ccc(NC(=O)N(C)C[C@@H]2OCCCC[C@@H](C)Oc3ccc(NC(=O)Nc4ccc(F)cc4)cc3C(=O)N([C@H](C)CO)C[C@H]2C)cc1 | -20.2[16.7 µM] | 0.5
C[C@H](CO)N1C[C@H](C)[C@H](CN(C)S(=O)(=O)c2ccc(Cl)cc2)Oc2c(NC(=O)c3ccc(-c4nccs4)cc3)cccc2C1=O | 13.2[16.7 µM] | -7.6
C[C@H](CO)N1C[C@H](C)[C@@H](CN(C)Cc2ccc(C(=O)Nc3ccccc3N)cc2)Oc2ccc(N(C)C)cc2C1=O | 15.4[16.7 µM] | 14.2
Cc1ccccc1-c1cnc2c(c1)C(=O)N([C@@H](C)CO)C[C@H](C)[C@@H](CN(C)CC1CCCC1)O2 | -3.9[16.7 µM] | -1.0
C[C@@H]1CCCCO[C@H](CN(C)S(=O)(=O)c2cccs2)[C@H](C)CN([C@@H](C)CO)C(=O)c2cc(NC(=O)c3ccncc3)ccc2O1 | -1.6[16.7 µM] | 4.9
C[C@@H]1CCCCO[C@@H](CN(C)Cc2ccccc2)[C@@H](C)CN([C@H](C)CO)C(=O)c2cc(NC(=O)Cc3ccccc3)ccc2O1 | -14.2[16.7 µM] | 27.1
CN(C)C(=O)C[C@@H]1CC[C@H]2[C@@H](COC[C@@H](O)CN2S(=O)(=O)c2ccccc2Cl)O1 | 1.2[16.7 µM] | -11.6
CCC(=O)N[C@H]1CC[C@H](CC(=O)NCC2CCCCC2)O[C@@H]1CO | 5.9[16.7 µM] | -12.6
C[C@@H]1CN([C@H](C)CO)S(=O)(=O)c2ccc(-c3ccccc3)cc2O[C@@H]1CN(C)Cc1ccccn1 | 3.5[16.7 µM] | -21.7
C[C@H]1CN([C@@H](C)CO)S(=O)(=O)c2ccc(-c3cccc(F)c3)cc2O[C@H]1CN(C)CC1CC1 | 14.6[16.7 µM] | -5.9
C[C@H](CO)N1C[C@H](C)[C@@H](CN(C)Cc2cccnc2)Oc2cc(-c3cncnc3)ccc2S1(=O)=O | 0.8[16.7 µM] | -17.5
CCCN(C)C[C@@H]1Oc2cc(-c3ccc(F)cc3)ccc2S(=O)(=O)N([C@@H](C)CO)C[C@@H]1C | -12.8[16.7 µM] | -0.5
CC(C)CC#Cc1cnc2c(c1)C(=O)N([C@@H](C)CO)C[C@H](C)[C@@H](CN(C)C(=O)Nc1ccccc1F)O2 | -0.6[16.7 µM] | 5.8
C[C@@H]1CN([C@@H](C)CO)C(=O)c2cc(NC(=O)C3CCCCC3)ccc2O[C@@H](C)CCCCO[C@H]1CN(C)Cc1ccc2c(c1)OCO2 | -23.1[16.7 µM] | 7.9
Cc1ccc(S(=O)(=O)N(C)C[C@H]2OCCCC[C@@H](C)Oc3ccc(NS(=O)(=O)c4cn(C)cn4)cc3C(=O)N([C@H](C)CO)C[C@H]2C)cc1 | -34.3[16.7 µM] | 17.0
Cc1noc(C)c1NC(=O)Nc1ccc2c(c1)C(=O)N([C@H](C)CO)C[C@H](C)[C@H](CN(C)Cc1ccccc1)OCCCC[C@@H](C)O2 | 18.9[16.7 µM] | 8.5
Cc1ccc(S(=O)(=O)N(C)C[C@@H]2OCCCC[C@@H](C)Oc3ccc(NS(=O)(=O)c4ccc(Cl)cc4)cc3C(=O)N([C@H](C)CO)C[C@H]2C)cc1 | -10.6[16.7 µM] | -2.2

Continued.
SMILES | Env fusion inh | UUG fidelity
CCCNC(=O)C[C@H]1CC[C@@H]2[C@@H](COc3ccc(NC(=O)c4cc(F)cc(F)c4)cc3C(=O)N2C)O1 | -22.6[16.7 µM] | -10.8
CCCC(=O)Nc1ccc2c(c1)C(=O)N(C)C[C@H](OC)[C@H](C)CN(C(=O)c1ccccc1F)[C@@H](C)CO2 | -2.4[16.7 µM] | -0.4
C[C@@H]1CN([C@@H](C)CO)C(=O)c2cc(NC(=O)CCCN(C)C)ccc2O[C@H]1CN(C)C(=O)Nc1ccc(F)cc1 | 1.9[16.7 µM] | 8.7
C[C@@H]1CCCCO[C@@H](CN(C)Cc2ccncc2)[C@H](C)CN([C@@H](C)CO)C(=O)c2cc(NS(=O)(=O)c3cn(C)cn3)ccc2O1 | 0.8[16.7 µM] | -8.8
